RE007 growth inh = qHTS Assay for Inhibitors of the HIV-1 protein Vpr | 360,000 tested, 0.21% active | S. pombe RE007 Vpr strain, BacTiter-Glo ATP luminescence, 24 h; control for the full effect not named in the record | Potency, µM (top dose mostly 92.2 µM), without a hit: at the top dose activity change, negative = less growth; active = well fitted falling curve with a large enough effect; inconclusive = small, poorly fitted or top-dose-only effect; inactive = no such curve, though single readings can be large or run the other way;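 note: % is set by controls: 0 for no effect and ±100 for the full control effect; nearly all actives have a fitted effect of over 50% in size; the assay follows cell death caused by Vpr and the record does not say whether a fall means rescue or toxicity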
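Fission yeast strain RE007, carrying one chromosomally integrated HIV-1 vpr copy, was seeded at OD 0.01 in PMG+AL medium with 23 nL pinned compound. After 24 h at 30 °C and 99% humidity, viability was read by BacTiter-Glo luminescence.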
StopGo reporter = High Throughput Screening for Foot and Mouth Disease Virus Antivirals | human cells with a luciferase reporter of 2A StopGo recoding; control for the full effect not named in the record | Potency, µM (doses to about 57.9 µM), inactives show at the highest dose signal change, negative = less light | 410,000 tested, 1.2% active | AID 1159524, 2015; active = well fitted falling curve with a large enough effect; inconclusive = small, poorly fitted or top-dose-only effect; inactive = no such curve, though single readings can be large or run the other way; tested in HEK293T cells; note: % is set by controls: 0 for no effect and ±100 for the full control effect; nearly all actives have a fitted effect of over 45% in size; luciferase light after 4 h
Marburg entry inh = qHTS for inhibitors of binding or entry into cells for Marburg Virus. Marburg virus pseudotyped entry inhibition, cell reporter; control for the full effect not named in the record; about a third of the inactives were read at about 46 µM. Potency, µM (titrated, usually from 37.8 µM), for inactives: at the highest dose activity change, negative = inhibition, usual class: inhibitors. 300,000 tested, 1.8% active. AID 540276, 2011; active = well fitted inhibition curve with a large enough effect; inconclusive = small, poorly fitted or top-dose-only effect, or effect the other way; inactive = flat fitted curve, though single readings scatter; tested in HEK293 cells; about a fifth of its hits are not listed in these tables; note: % is set by controls: 0 for no effect and ±100 for the full control effect; luciferase read-out
Cruzain Triton = qHTS Assay for Promiscuous and Specific Inhibitors of Cruzain (with detergent). Cruzipain (Trypanosoma cruzi), P25779. purified cruzain, Z-FR-AMC fluorescence, 0.01% Triton. Potency, µM, for inactives: max response, negative = inhibition, most hits filed as inhibitors. 200,000 tested, 0.43% active;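 note: plate controls were neutral wells for no effect and buffer without enzyme for full effect; nearly all actives have a fitted effect of over 40% in size; top concentration of the series not given in the record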
Target sequence (P25779 123-467 limits assumed): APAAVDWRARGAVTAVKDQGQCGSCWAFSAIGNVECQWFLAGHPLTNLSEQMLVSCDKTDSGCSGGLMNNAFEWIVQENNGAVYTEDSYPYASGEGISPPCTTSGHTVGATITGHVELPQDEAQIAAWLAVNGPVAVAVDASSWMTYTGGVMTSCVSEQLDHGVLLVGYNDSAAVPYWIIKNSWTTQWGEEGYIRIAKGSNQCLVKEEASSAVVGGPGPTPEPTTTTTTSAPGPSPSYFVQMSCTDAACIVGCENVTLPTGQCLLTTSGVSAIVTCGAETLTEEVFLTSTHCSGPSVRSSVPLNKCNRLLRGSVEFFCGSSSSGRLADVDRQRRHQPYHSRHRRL
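Cruzain (1.5 nM) preincubated 15 min at RT with compound in 100 mM sodium acetate pH 5.5, 5 mM DTT, 0.01% Triton X-100. Reaction started with 2 uM Z-FR-AMC; AMC fluorescence (ex 360/em 450 nm) change over 60 s gave rate.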
LASV entry inh = qHTS for Inhibitors of binding or entry into cells for Lassa Virus; Potency, µM (top dose mostly 37.9 µM), without a hit: at the highest dose activity change, negative = inhibition, most hits filed as inhibitors; 300,000 tested, 1.2% active; Lassa virus pseudotype entry inhibition, cell reporter; control for the full effect not named in the record; active means well fitted inhibition curve with a large enough effect; inconclusive means small, poorly fitted or top-dose-only effect, or effect the other way; inactive means flat fitted curve, though single readings scatter; tested in HEK293 cells; note: % is set by controls: 0 for no effect and ±100 for the full control effect; nearly all actives have a fitted effect of over 50% in size; luciferase read-out
SARS PLpro yeast = qHTS of Yeast-based Assay for SARS-CoV PLP; S. cerevisiae expressing SARS-CoV PLpro, growth rescue; control for the full effect not named in the record; Potency, µM (titrated, usually from 32.9 µM), for the others: at the top dose activity, positive = growth rescue; 330,000 tested, 0.19% active; active means well fitted rising curve with a large enough effect; inconclusive means small, poorly fitted or top-dose-only effect; inactive means no such curve, though single readings can be large or run the other way; note: 0% is about no effect; nearly all actives have a fitted effect of over 55% in size; growth read by luminescence after 48 h
Cruzain noTriton = qHTS Assay for Promiscuous and Specific Inhibitors of Cruzain (without detergent); AID 1476, 2009; Potency, µM, for the others: max response, negative = inhibition, usual class: inhibitors; 200,000 tested, 2.3% active; Cruzipain (Trypanosoma cruzi), P25779; purified cruzain, Z-FR-AMC fluorescence, no detergent;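 note: plate controls were enzyme without inhibitor for no effect and buffer without enzyme for full effect; nearly all actives have a fitted effect of over 40% in size; top concentration of the series not given in the record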
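Detergent-free condition (0.00005% Triton X-100) in acetate buffer pH 5.5 with DTT. 1.5 nM enzyme and compound were pre-mixed 15 min, then 2 uM Z-FR-AMC substrate added; reaction progress from fluorescence change between first and third reads (60 s).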
NS1 function inh = qHTS Assay for Inhibitors of Influenza NS1 Protein Function; S. cerevisiae slowed by influenza A NS1, growth recovery by OD600; Potency, µM (series often up to 46.1 µM), without a hit: top-dose activity, positive = more growth; 270,000 tested, 0.4% active; active means well fitted rising curve with a large enough effect; inconclusive means small, poorly fitted or top-dose-only effect; inactive means no such curve, though single readings can be large or run the other way; note: nearly all actives have a fitted effect of over 50% in size
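Read-out: OD600 growth recovery of NS1-expressing budding yeast. Cells grown overnight at 30C in -URA glucose medium, washed, resuspended and diluted 1:100 in 2% galactose assay medium, pH 6.0. Same strain lacking NS1 served as positive control.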
* hit, by the source's call; ? = inconclusive; / = no result given; & = joins results of further samples; [ ] = remark or other dose. Unless noted, calls come from the whole dose curve; as a rule, active = well fitted curve in the direction sought with a large enough effect; inconclusive = small, poorly fitted or top-dose-only effect, or another doubt; inactive = no such curve, though single readings can be large; an effect the other way counts as inactive or inconclusive. Potency is the fitted concentration of half-maximal effect. Outcome played no part in choosing rows; overall some 4.5% were active at least once.

SMILES	RE007 growth inh	StopGo reporter	Marburg entry inh	Cruzain Triton	LASV entry inh	SARS PLpro yeast	Cruzain noTriton	NS1 function inh
COc1cc(C2c3c(-c4cc(C)cc(C)c4O)n[nH]c3C(=O)N2CCCO)cc(OC)c1OC (configuration not stated)	-4%	-17%	3%&3%	-6.2%	8.2µM*	-1%	?	-10%
O=[N+]([O-])c1ccc(SCc2c(F)cccc2Cl)nc1	-3%	-15%	?	/	10%[46.1 µM]	-2%	/	1%
NCCCCCc1nnc(SC/C=C/c2ccccc2)o1	-15%	2%	2%	5.0%	-14%	-12%	13%	0%
O=C(COc1cccc(F)c1)Oc1ccc(C(=O)c2ccccc2)cc1	6%	17%	29%	-4.5%	?	-5%	-1%	-7%
O=C(Nc1ccc(Cl)cc1)N1CCN(c2ccc3nnc(-c4ccc(F)cc4)n3n2)CC1	11%	-28%&-17%	?	-8.5%&-2.6%	?	3%	?	-11%
Cc1ccc(Cl)cc1N(CC(=O)N1CCCCCC1)S(C)(=O)=O	4%	-7%	7%	1.4%	9%	2%	7%	9%
c1ccc2c(-c3csc(-c4ccncc4)n3)c[nH]c2c1	-6%	26%	/	/	/	-6%	/	-42%
Cc1ccc(S(=O)(=O)NC(CC(=O)N2CCC3(CC2)OCCO3)c2ccco2)cc1 (configuration not stated)	9%	-9%	6%[46.1 µM]	-4.5%	23%	0%	-4%	1%
COc1ccc(N2CCN(C(=O)NCc3ccc(C)cc3)CC2)cc1	70%	7%	-6%	/	-13%	-3%	/	-2%
Cc1onc(-c2ccccc2)c1C(=O)NC(=S)NNC(=O)c1ccccc1O	6%	?	3.2µM*	0.9%	?	4.5µM*	?	-10%
CCOC(=O)CSc1nc(N2CCOCC2)c2c(c1C#N)CC(C)(C)OC2	-1%	-7%	/	/	/	4%	/	-7%
O=C1CSC(c2cccc([N+](=O)[O-])c2)N1CCc1ccccc1 (configuration not stated)	2%	0%	-28%	/	-9%	?	/	-53%
Nc1cccc(-c2ccc(CO)o2)c1	-4%	23%	/	/	/	0%	/	5%
CCc1nn(CC(=O)NCCN2CCN(C)CC2)c(=O)c2cc3c(OC)cccc3n12	-3%	0%	/	/	/	4%	/	14%
O=C1NC2(CCCc3ccccc32)C(=O)N1CCOc1ccc(Br)cc1 (configuration not stated)	8%	?	-17%	-2.8%	5%	6%	8%	2%
COc1ccc(CCC(=O)O)c(O)c1	1%	-13%	/	/	/	0%	/	6%
Cc1ccc(/C=N/NC(=O)CN2CCN(Cc3ccccc3Cl)CC2)o1	-15%	-19%	7%[46.1 µM]	/	14%[46.1 µM]	-1%	/	-3%
Cc1nc2ccccc2n1CC(=O)OCC(=O)NCCc1ccccc1	14%	0%	-1%	6.1%	13%	-5%	-6%	1%
Cc1ccc(S(=O)(=O)Nc2cc(C(F)(F)F)ccc2N2CCOCC2)cc1C	6%	-19%	-36%	-10.0%	-8%	1%	?	19%
COc1ccc(-c2ccc(CCC(=O)O)n2NC(=O)c2ccc(C(C)(C)C)cc2)cc1	-8%	-14%	-10%[46.1 µM]	/	-14%	-1%	/	16%
CN(C)c1ncnc(N(C)C)c1[N+](=O)[O-]	0%	-4%	5%	/	6%	0%	/	1%
COc1ccc(C2=NN3C(C2)c2ccccc2OC3c2cccs2)cc1 (configuration not stated)	?	62%[activator]	?	/	-8%	-1%	/	-8%
O=C(NCc1ccccc1)NC1CCCCC1	7%	/	14%&14%	5.5%	?	8%	2%	5%
COc1ccc(C2C3(C#N)C(N)=NC(OC)(OC)C23C#N)cc1 (configuration not stated)	18%	-9%	-4%[46.1 µM]	/	/	1%	/	/
Cc1c(Cl)ccc2sc(NC(=O)c3ccc(S(=O)(=O)N4CCCc5ccccc54)cc3)nc12	/	-2%	/	0.8%	-12%[46.1 µM]	/	?	/
CCN(CC)CCCOc1ccc(Cl)c(Cl)c1	-16%	-14%	?	-4.3%	-20%	-24%	-5%	-3%
CCC(OC(=O)CC1Sc2ccccc2NC1=O)C(=O)NCC1CCCO1 (configuration not stated)	12%	/	-10%	-3.4%	20%	0%	-5%	1%
CCOC(=O)C1=C(CSc2nc(C)ccc2C#N)OC(N)=C(C#N)C1c1cccc(OC)c1OC (configuration not stated)	15%	-22%	0%&0%	-6.3%	-3%	-21%	-16%	-146%
CC1Cc2ccccc2N1C(=O)COC(=O)CCc1nc2ccccc2c(=O)[nH]1 (configuration not stated)	-9%	0%	-3%[46.1 µM]	/	-1%	0%	/	-12%
Cc1cc(=O)[nH]c(N2CCN(Cc3ccccc3)CC2)n1	-1%	6%	16%	2.8%	-22%[14.3 µM]	0%	-3%	10%

Three compounds drawn at random from the list so far:
SMILES	RE007 growth inh	StopGo reporter	Marburg entry inh	Cruzain Triton	LASV entry inh	SARS PLpro yeast	Cruzain noTriton	NS1 function inh
COc1ccc(C2=NN3C(C2)c2ccccc2OC3c2cccs2)cc1 (configuration not stated)	?	62%[activator]	?	/	-8%	-1%	/	-8%
CCN(CC)CCCOc1ccc(Cl)c(Cl)c1	-16%	-14%	?	-4.3%	-20%	-24%	-5%	-3%
O=C(NCc1ccccc1)NC1CCCCC1	7%	/	14%&14%	5.5%	?	8%	2%	5%

(next part)
SMILES	RE007 growth inh	StopGo reporter	Marburg entry inh	Cruzain Triton	LASV entry inh	SARS PLpro yeast	Cruzain noTriton	NS1 function inh
CCc1ccc(-n2nc(C)c3c(C(=O)Nc4cc(C)ccc4C)cc(C)nc32)cc1	/	7%	/	-0.4%	-2%[46.1 µM]	/	-2%	/
COc1cc(/C=N/NC(=O)Cc2ccccc2)cc([N+](=O)[O-])c1O	-3%	-13%	/	/	/	3%	/	12%
COC(=O)Cc1csc(Nc2ccc(Cl)cc2)n1	?	-16%	?	-5.9%	19%	-83%	1%	-46%
CCOC(=O)Cn1c(-c2cccnc2)nc(-c2ccccc2)c1-c1ccccc1	-19%	-12%	?	/	2%[46.1 µM]	0%	/	-4%
Cc1ccc(C2=NN(CCC(=O)NCc3ccc4c(c3)OCO4)C(=O)CC2)cc1	4%	0%	?	-0.5%	1%	2%	-1%	-3%
COc1cccc(CNC(=O)C2CCN(S(=O)(=O)c3ccc4c(c3)CCCN4C(C)=O)CC2)c1	/	-15%	/	0.5%	-4%[46.1 µM]	/	9%	/
O=c1c(Cc2ccc(Cl)cc2)c(O)ccn1Cc1cccs1	15%	-3%	-9%[46.1 µM]	/	7%[46.1 µM]	0%	/	2%
COc1ccc2oc(=O)c(C(=O)NCCc3ccc(OC)c(OC)c3)cc2c1	8%	-29%	25%[46.1 µM]	/	15%[46.1 µM]	-10%	/	?
CCc1cccc(OCC(O)Cn2c(N3CCCCC3)nc3c2c(=O)[nH]c(=O)n3C)c1 (configuration not stated)	8%	?	/	/	/	0%	/	15%
COC(=O)c1ccc(C)c(NC(=O)CSc2sc3c(O)cc(=O)[nH]c3c2C#N)c1	-7%	6%	8%[46.1 µM]	/	0%[46.1 µM]	1%	/	?
COc1ccc(CCNC(=O)C(C)n2c(=O)cc(-c3ccccc3)c3c(C)nn(C)c32)cc1OC (configuration not stated)	/	-10%	/	-5.5%	-11%[46.1 µM]	/	?	/
O=C(Nc1ccc(N2CCOCC2)c(C(=O)O)c1)c1ccc(Br)cc1	/	-16%	/	3.8%	-1%[46.1 µM]	/	-9%	/
CCOc1cc(CNC(=O)c2ccc3c(c2)NC(=O)C2CCCCN32)cc(OCC)c1OCC (configuration not stated)	/	0%	/	-14%	16%[46.1 µM]	/	-2%	/
CCC(=O)Nc1cc(-c2nc3ccccc3s2)c(Cl)cc1Cl	/	2%	-2%[46.1 µM]	-0.5%	-3%[46.1 µM]	/	4%	/
COc1ccccc1NC(=O)Cn1ccn(-c2cc(C)cc(C)c2)c(=O)c1=O	/	2%	/	-7.2%	1%[46.1 µM]	/	-11%	/
CCN(CC)S(=O)(=O)c1ccc2c(c1)N(CC(=O)NCc1ccc(F)cc1)C(=O)CO2	/	-2%	6%[46.1 µM]	-0.8%	7%[46.1 µM]	/	-1%	/
S=C(c1ccc(N2CCOCC2)cc1)N1CCCCC1	-10%	41%[activator]	22%	-1.7%	?	10%	0%	7%
CCCC1CCC(C(=O)Nn2c(C)nc3ccccc3c2=O)CC1 (configuration not stated)	8%	-11%	0%	-1.9%	-10%	-16%	46%	-62%
CC(C)(C)OC(=O)N1CCC[C@H]1C(=O)N/N=C/c1ccc2nccnc2c1	22%	-18%	?	/	12%	0%	/	1%
COc1ccc(NS(=O)(=O)c2ccc(C)c(C(=O)NCC(c3cccs3)N3CCOCC3)c2)cc1 (configuration not stated)	1%	27%	17%	/	6%	1%	/	/
O=C(NCC1CCCO1)c1cc2ccccc2o1 (configuration not stated)	8%	25%	?	/	26%[46.1 µM]	0%	/	2%
COc1cccc(-c2cc(C(=O)O)[nH]n2)c1	0%	4%	-9%	-2.6%	9%	2%	-1%	0%
CC1CCCN(S(=O)(=O)c2ccc3c(c2)n(C)c(=O)c(=O)n3C)C1 (configuration not stated)	8%	-18%	/	/	/	1%	/	-1%
CCOCCCN(Cc1ccco1)S(=O)(=O)c1cc2c(cc1Cl)NC(=O)CO2	/	-1%	/	-6.6%	-13%[46.1 µM]	/	-13%	/

By substructure: the compounds so far with a tert-butyl group (2)
SMILES	RE007 growth inh	StopGo reporter	Marburg entry inh	Cruzain Triton	LASV entry inh	SARS PLpro yeast	Cruzain noTriton	NS1 function inh
COc1ccc(-c2ccc(CCC(=O)O)n2NC(=O)c2ccc(C(C)(C)C)cc2)cc1	-8%	-14%	-10%[46.1 µM]	/	-14%	-1%	/	16%
CC(C)(C)OC(=O)N1CCC[C@H]1C(=O)N/N=C/c1ccc2nccnc2c1	22%	-18%	?	/	12%	0%	/	1%
